Assay outcomes deposited in PubChem BioAssay by several laboratories.
PABP polyA inh: PABP-poly(A) binding inhibition; PABP-poly(A) RNA binding, fluorescence polarization; inhibition, % at 35 µM; 1% of 290,000 active;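 active = 50% or more with normal probe brightness, or confirmed in later tests; about a fifth of its hits are not listed in these tables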;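 also: calls also rest on retests at 20 µM and on dose response follow-up; controls were probe without protein and protein plus probe with vehicle; some compounds called inactive have numbers as strong as hits; many hits fall short of the cut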
Target sequence (P11940 whole entry, looked up): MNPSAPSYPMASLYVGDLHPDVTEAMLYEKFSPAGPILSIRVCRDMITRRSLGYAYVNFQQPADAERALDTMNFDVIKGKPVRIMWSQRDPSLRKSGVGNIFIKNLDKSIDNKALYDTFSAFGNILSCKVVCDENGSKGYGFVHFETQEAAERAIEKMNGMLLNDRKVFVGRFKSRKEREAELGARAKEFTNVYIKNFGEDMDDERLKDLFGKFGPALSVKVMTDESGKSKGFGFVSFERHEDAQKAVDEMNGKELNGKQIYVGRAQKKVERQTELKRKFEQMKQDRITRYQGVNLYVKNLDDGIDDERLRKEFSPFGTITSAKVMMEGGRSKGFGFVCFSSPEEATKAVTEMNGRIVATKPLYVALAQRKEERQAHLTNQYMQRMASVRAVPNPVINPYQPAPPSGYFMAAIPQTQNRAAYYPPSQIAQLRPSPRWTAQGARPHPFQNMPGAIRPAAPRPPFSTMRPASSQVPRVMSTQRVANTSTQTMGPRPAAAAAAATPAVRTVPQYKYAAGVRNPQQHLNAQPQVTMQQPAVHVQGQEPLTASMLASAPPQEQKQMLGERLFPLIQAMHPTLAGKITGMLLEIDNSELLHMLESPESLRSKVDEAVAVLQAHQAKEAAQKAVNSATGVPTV
HIV Env fusion: HIV envelope-mediated fusion inhibition. 1.1% of 360,000 active. inhibition, % at 12.3 µM. HeLa-JRFL Env/CEM21 cell fusion, luciferase;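 active = mean replicate inhibition score of at least 50 and every replicate individually at or above 50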;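 also: 0% = plate neutral controls and 100% = maraviroc near 300 nM; one replicate is shown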
Rce1 inhib: blocks yeast Ras-converting enzyme | 0.27% of 290,000 active | yeast membranes, quenched prenylated peptide cleavage fluorescence | calls only;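 active = fall in fluorescence gain of 50% or more versus controls, with final raw signal at or below 3038400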;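 also: plate controls were neutral control wells for no effect and wells lacking membranes for full effect; tested at 10 µM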
Target sequence (Q03530 whole entry, looked up): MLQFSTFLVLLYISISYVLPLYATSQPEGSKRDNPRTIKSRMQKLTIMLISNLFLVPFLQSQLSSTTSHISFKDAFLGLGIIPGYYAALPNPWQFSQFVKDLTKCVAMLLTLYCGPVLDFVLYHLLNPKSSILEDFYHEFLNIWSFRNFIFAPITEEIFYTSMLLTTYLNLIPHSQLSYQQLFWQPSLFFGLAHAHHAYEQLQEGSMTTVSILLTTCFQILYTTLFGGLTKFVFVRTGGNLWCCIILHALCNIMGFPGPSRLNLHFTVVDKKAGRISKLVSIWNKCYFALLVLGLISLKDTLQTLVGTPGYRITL
eIF4H FP inh: inhibitors of RNA binding by human eIF4H | eIF4H fluorescence polarization binding assay | 0.94% of 290,000 active | Q15056 | inhibition, % at 35 µM;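 active = 50% or more with normal probe brightness, or confirmed in later tests; about a fifth of its hits are not listed in these tables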;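 also: calls also rest on retests at 20 µM and on dose response follow-up; 0% = protein and probe with vehicle and 100% = probe without protein; strong numbers were not always called active; many hits fall short of the cut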
MT1-MMP act inh: MT1-MMP (human) activation inhibition | 0.061% of 360,000 active | AID 651647 | GFP/RFP ratio change, % at 20 µM | P50281 | HT1080 RFP-PRO-GFP cells, GFP/RFP ratio fluorescence, overnight; percent of plate control window, DMSO zero;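 active = GFP/RFP ratio change of at least 30% with cell ATP level not reduced by more than half and red fluorescence within 50% of control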; also: strong numbers were not always called active
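Assay system: RFP-PRO-GFP reporter HT1080 cells; read-out basis: GFP/RFP fluorescence ratio; benchmarks: DMSO wells and RFP-L50D-GFP cells; doses: 20 µM single dose, 1% DMSO; schedule: overnight cell settling, then overnight compound exposure, 37 °C, 5% CO2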
CSC inhib: cancer stem cell inhibition; cancer stem cell-like cells viability, luminescence; inhibition, % at 7.5 µM; 1.1% of 300,000 active; AID 2717;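 active = mean at 75% or more and at least half the replicates too; tested in HMLE shEcad cells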;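 also: 0% = median of negative and 100% = median of positive control wells; the first replicate is given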
UUG fidelity: alters start codon recognition fidelity in yeast | S. cerevisiae UUG-firefly luciferase reporter, luminescence/redox ratio | activity score, % at 18.7 µM | 0.13% of 350,000 active;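 active = replicate mean at a twofold rise or more, about +100% in these data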;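 also: firefly luciferase made from a UUG start codon reports start codon fidelity; reporter light over untreated wells divided by growth signal over untreated wells; some hits fall short of that in this replicate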
eIF4H FP inh retest: also measured in eIF4H FP inh; calls as there; inhibition, %; compound at 20 µM; confirmation average;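 mean of two retest wells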
PABP polyA inh retest: second read-out of PABP polyA inh, no call of its own (marks repeat the call); inhibition, %; compound at 20 µM; confirmation repeats;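 mean of two retest wells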
MT1-MMP act inh RFP: further read-out of MT1-MMP act inh, marked with its call; RFP signal change, %; measured here: RFP expression control read;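 0 = vehicle wells; hits needed this value within 50% of zero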
The depositor's hits bear a star; i = inactive; · = no result given; & = joins results of further samples; [ ] = remark or other dose.

SMILES	PABP polyA inh	HIV Env fusion	Rce1 inhib	eIF4H FP inh	MT1-MMP act inh	MT1-MMP act inh RFP	CSC inhib	UUG fidelity	others
CC(C)[C@H](NC(=O)N1CCn2c1nc1ccccc12)C(=O)N[C@@H](C(=O)O)c1ccccc1	5	·	i	-6	3	1	-3	-17
O=C(Cc1ccc(Cl)cc1)Nc1ccc(N2CCN(C(=O)c3ccco3)CC2)cc1	1	·	i	-1	-4	-6	-13	-9
COCCN1C(=O)/C(=C2/C(=O)N(CC(=O)Nc3ccccc3Cl)c3ccccc32)SC1=S	8	·	i	10	10	2	-4	-10
CS(=O)(=O)NCCNc1cc(Cl)ccc1[N+](=O)[O-]	-14	-43	i	-4	0	0	-5	14
O=C(CNC(=O)c1ccc(Br)o1)NC1CCCCC1	9	6	i	-9	-3	4	-13	-18
CC(C)OCCCNC(=O)C1CC(=O)N(CCc2ccccc2)C1 (stereo unspecified)	4	-20	i	-2	4	6	-17	-15
CN(Cc1ccccc1)/C(=N/O)c1cccc(Cl)c1	-13	-13	i	-2	-1	-1	4	-5
COc1cccc2nc3cc(C)c(C)cc3nc12	15	-87	i	20	4	0	51	-55
COc1cccc(C2=NN(C(=O)c3ccco3)C(O)(C(F)(F)F)C2)c1 (stereo unspecified)	10	-26	i	-2	-5	1	·	-16
O=C(Nc1ccc(Cl)cc1)c1ccc2c(c1)S(=O)(=O)c1ccccc1C2=O	·	-97	i	·	2	0	-5	-10
COc1ccccc1NS(=O)(=O)c1cccc(C(=O)NCC2(N3CCCCC3)CCCCC2)c1	·	21	·	·	3	-3	·	-4
CC(N1CCOC1=O)S(=O)(=O)c1ccccc1 (stereo unspecified)	18	-42	i	-5	2	7	-15	-10
CCn1cc(C(=O)NCCc2ccccc2)c(=O)c2cc(S(=O)(=O)N3CCCC3)ccc21	16	8	i	-8	1	-2	·	4
O=C(O)Cc1csc(NC(=O)c2ccco2)n1	19	·	i	1	1	4	0	373*
CC(C)C1NC2(C(=O)c3ccccc3C2=O)C2C(=O)N(c3ccc(F)cc3)C(=O)C12 (stereo unspecified)	39*	-27	i	51*	-26	0	-11	-21	eIF4H FP inh retest=74*;PABP polyA inh retest=73*
CCOC(=O)c1ccc(-n2c(CN3CCC(O)CC3)nc3ccc([N+](=O)[O-])cc3c2=O)cc1	-1	-16	i	-1	1	-3	-7	·
COc1ccc(/C=N/NC(=O)c2ccc(N(C)S(=O)(=O)c3ccccc3)cc2)c(OC)c1	5	21	i	-10	1	1	·	-8
COc1cccc(CNc2ccc(C(=O)O)cc2)c1OCc1ccccc1	2	6	i	1	2	2	0	·
O=C(CNC(=S)NC(=O)c1ccc(F)cc1)c1ccccc1	-2	-12	i	4	-3	0	-8	·
COC(=O)CC1C(=O)NCCN1C(=O)c1ccc(S(=O)(=O)N2CCOCC2)cc1 (stereo unspecified)	-7	24	i	-8	1	2	3	-7
Nc1c(-c2ccc(Cl)cc2)nnn1-c1ccccc1	0	-246	·	6	9	5	-1	-1
CCOc1ccc(/C=C/C(=O)OCC(=O)Nc2cccc(S(=O)(=O)N3CCCC3)c2)cc1	·	6	·	·	2	0	-21	-29
O=C(CSc1ccc(Cl)cc1)Nc1cccc(-c2nc3ncccc3o2)c1	-8	-93	i	-3	1	-19	-11	-15
CC(C)/C=C/CN1CCN(CCCc2ccccc2)C(CCO)C1 (stereo unspecified)	-1	-68	i	1	1	4	58	-10
Cc1sc(NC(=O)CS(=O)(=O)c2ccccc2)c(C#N)c1C	·	·	i	·	-2	1	-17	11
CCCOc1ccc(/C=N/NC(=O)CN2CCCCC2)cc1	-4	16	i	5	2	3	-4	-21
CCc1ccc(NC(=O)CN(c2ccccc2)S(=O)(=O)N(C)C)cc1	9	-15	i	10	5	-3	1	-11
Cc1ccc2[nH]c(=O)c(CN(Cc3cccs3)Cc3nnnn3Cc3ccccc3)cc2c1	0	·	i	0	-4	0	5	-7
Cc1ccc(S(=O)(=O)NCC(=O)Nc2cccnc2)cc1C	·	-4	·	·	-1	-2	-3	·
COc1cc(OC)cc(-c2cc3nc(C)c(CCC(=O)NC(C)CCc4ccco4)c(C)n3n2)c1 (stereo unspecified)	-2	13	i	-9	-5	-5	-12	-9
COc1cc(-c2cc3nc(NCCN(C)C)ccn3n2)cc(OC)c1OC	·	-82	·	·	9	0	·	-19
O=C(Nc1nnc(-c2ccco2)o1)C1CCCCC1	3	-19	i	-5	0	2	10	-19
Cc1ccc(S(=O)(=O)N2CCCCC2)cc1NC(=O)CN1C(=O)CN(C)C1=O	18	13	i	-1	6	0	-12	·
CCOC(=O)C1(CC2CC2)CCN(Cc2cnc(-c3ccccc3C)nc2)CC1	5	19	i	0	2	-8	2	·
Cc1ccc(CNC(=O)C2CCN(S(=O)(=O)c3cnc[nH]3)CC2)cc1	0	·	i	2	5	4	2	-14
CCN1C(=O)C(CC(=O)Nc2ccc(Cl)cc2)N(NC(=O)c2ccncc2)C1=S (stereo unspecified)	3	-1	i	-2	1	4	6	2
Cc1ccc2cc3c(N)[nH]nc3nc2c1	-8	36	i	9	5	4	1	-3
O=C(N/N=C/c1cccc(Cl)c1Cl)Nc1ccccc1	2	·	i	-10	4	3	-6	-8
COc1cccc(NC(=O)N2CCN(c3nc(-c4cccc(OC)c4)cs3)CC2)c1	-7	18	i	-5	-8	-26	38	-8
CCN(CC(=O)Nc1ccc(OC)cc1)C(=O)Cc1coc2cc(C)c(C)cc12	·	1	·	·	1	-1	·	-19

Three entries already listed, ordered by SMILES length, lowest first:
SMILES	PABP polyA inh	HIV Env fusion	Rce1 inhib	eIF4H FP inh	MT1-MMP act inh	MT1-MMP act inh RFP	CSC inhib	UUG fidelity	others
Cc1ccc2cc3c(N)[nH]nc3nc2c1	-8	36	i	9	5	4	1	-3
CC(N1CCOC1=O)S(=O)(=O)c1ccccc1 (stereo unspecified)	18	-42	i	-5	2	7	-15	-10
COc1cc(-c2cc3nc(NCCN(C)C)ccn3n2)cc(OC)c1OC	·	-82	·	·	9	0	·	-19

Next part:
SMILES	PABP polyA inh	HIV Env fusion	Rce1 inhib	eIF4H FP inh	MT1-MMP act inh	MT1-MMP act inh RFP	CSC inhib	UUG fidelity	others
CN(c1ccc(OCC(=O)N2CCCC2)cc1)S(=O)(=O)c1ccc(Cl)cc1	·	·	·	·	0	2	-19	-3
CCCCn1c(-c2ccc(OC)cc2)nc2c(=O)n(C)c(=O)[nH]c21	18	-15	i	8	2	4	-15	·
CCC(=O)N1CC2(c3ccccc3)CN(C(=O)CC)CC(c3ccccc3)(C1)C2=O	6	-11	i	-2	-2	1	-14	·
CC(C)(C)OC(=O)C[C@H]1C/C=C\C[C@H](CC(=O)NCCO)C(=O)N[C@@H](c2ccccc2)COC1=O	·	7	·	·	3	-6	6	-9
COc1ccc(-c2cn3c(C)c(C(=O)N4CCCc5ccccc54)sc3n2)cc1	·	-6	i	·	-3	-17	49	1
CCNC(=S)N1CCCCC1CO (stereo unspecified)	2	0	i	-4	-7	5	-10	·
O=C(/C=C/c1ccc([N+](=O)[O-])cc1)Nc1ncc([N+](=O)[O-])s1	-3	-81	·	9	-9	-11	·	1
O=C1c2cccc(OCC(=O)N3CCCc4ccccc43)c2CCN1Cc1cccnc1	4	23	i	-8	-3	-20	-6	·
O=C(NCC1OCCCN1S(=O)(=O)c1cc(F)ccc1F)C(=O)NC1CCCC1 (stereo unspecified)	-5	1	i	-4	1	-2	-4	-1
C/C(=N\NC(=O)c1nc2ccccn2c1C)c1cccc([N+](=O)[O-])c1	-8	-1	i	-5	1	-5	-16	·
CC(=O)c1cccc(OCc2cc(C(=O)N(C)CCc3ccccn3)no2)c1	-15	8	i	-1	2	-1	2	-3
COc1cccc(CN(C)CC(O)COC(c2ccccc2)c2ccccc2C)c1 (stereo unspecified)	6	6	i	-8	-4	-16	14	·
COc1ccc2ccccc2c1/C=N/n1cnnc1	4	11	i	-2	2	0	-15	-9
CCn1cc(C(=O)NCC2COc3ccccc3O2)c2cc(OC)c(OC)cc2c1=O (stereo unspecified)	2	-144	i	-6	-2	-6	11	-10
COc1ccc(CNCCCNCc2ccc(OC)c(OC)c2)cc1OC	·	-13	·	·	5	3	·	-30
O=C(NCc1cccnc1)C(=O)Nc1nc2ccccc2s1	2	2	i	-6	3	3	-20	·
CCOC(=O)CNC(=O)CSc1nc2sc(C)c(C)c2c(=O)n1C	-7	-10	i	-4	0	3	-6	-12
CC1C(=O)Nc2ccccc2N1C(=O)c1ccc(F)cc1F (stereo unspecified)	-3	17	i	-1	1	-2	0	1
CC(C)CNS(=O)(=O)c1cc(C(=O)N2CC(C)OC(C)C2)c(Cl)cc1Cl (stereo unspecified)	-2	·	i	-10	1	-3	-7	-7
COc1cc2c(cc1OC)CN(CC(=O)Nc1ccc(C)cc1)CC2	3	·	i	-4	3	3	-3	21
O=C(NC(=S)Nn1cnnc1)c1cccc(Br)c1	-4	19	i	4	-6	3	-13	·
COC(=O)c1ccc(COC(=O)c2ccc(S(=O)(=O)N3CCC(C)CC3)cc2)o1	-5	·	i	3	5	4	-5	·
CC(C)C(=O)Nc1nc(-c2ccc(S(=O)(=O)N3CCOCC3)cc2)cs1	-5	21	i	-3	5	0	5	-17
O=C(CN1CCN(C(=O)c2ccccc2)CC1)Nc1ccccc1	0	18	·	6	-2	1	-17	-2
CC(C)c1nc(CNC(=O)c2ccc(OC3CCN(Cc4ccccn4)CC3)cc2)cs1	5	3	i	9	3	-4	-1	·
CCC1=C(OC(=O)N(CC)CC)N2C(=O)OC(=NCCOC)[C@]2(Cc2ccccc2)[C@H]2C1=CC[C@H]1C(=O)N(CC(=O)OC)C(=O)[C@H]12	21	-1	i	6	-2	1	0	3
Cc1nn(C)cc1-c1n[nH]c(=S)n1-c1ccc(F)cc1	-4	17	i	2	-4	1	6	·
COC(=O)N/N=C\c1ccc(-c2cc(Cl)c(Cl)cc2Cl)o1	7	-117	i	-4	-2	2	-5	-1
COc1ccc(Cc2nnc(SCc3c(C)noc3C)n2C2CCCCC2)cc1OC	-6	-10	i	-4	-2	0	2	-17
Cc1sc2nc(CN3CCOCC3)nc(NS(=O)(=O)c3ccccc3)c2c1C	17	·	i	-18	2	6	·	-17
Cc1ccc(S(=O)(=O)N2C[C@H]3[C@H]4C(=O)N(C5CCCCC5)C(=O)[C@H]4CC(=O)[C@H]3[C@@H]2c2ccccc2Cl)cc1	·	59*	·	·	0	-2	·	4
Cc1ccc(S(=O)(=O)C2(C(=O)O)CCCC2)cc1C	3	·	i	-1	5	4	-1	-10
C[C@@H]1CCCCO[C@H](CN(C)C(=O)NC2CCCCC2)[C@@H](C)CN([C@H](C)CO)C(=O)c2cc(NC(=O)c3ccccc3)ccc2O1	·	16[16.7 µM]	·	·	0	0	·	-1&15
O=C(CSc1cc(Cl)ccc1Cl)NC1CCCC1	-2	-18	i	1	1	1	-9	-12
CSc1nc2sc3c(c2c(=O)n1C1CCCCC1)CCN(C)C3	37	·	i	-5	-5	3	12	14
Cc1ccc(CCCOC(=O)C[N+]2(C)CCCC2)cc1	2	-41	i	0	-1	3	5	·
Cc1oc(C(C)(C)C)cc1C(=O)Nc1ccc2c(c1)OCCO2	1	·	i	-4	2	-2	·	-17
CCOc1ccc(C(=O)CSc2nnc(N)s2)cc1	7	-207	i	62	-1	-1	11	-28	eIF4H FP inh retest=-8;PABP polyA inh retest=8

2 records drawn at random from those above:
SMILES	PABP polyA inh	HIV Env fusion	Rce1 inhib	eIF4H FP inh	MT1-MMP act inh	MT1-MMP act inh RFP	CSC inhib	UUG fidelity	others
Cc1ccc(S(=O)(=O)C2(C(=O)O)CCCC2)cc1C	3	·	i	-1	5	4	-1	-10
Cc1oc(C(C)(C)C)cc1C(=O)Nc1ccc2c(c1)OCCO2	1	·	i	-4	2	-2	·	-17
